Screening results (PubChem)
KCNQ2 block: KCNQ2 potassium channel inhibitors, primary screen, cell-based, CHO-K1, FluxOR thallium flux, B-score (AID 2156); 20 min; stronger effect = lower value; only compounds with negative scores are shown here; some inactives read as strong as hits; B-score at 10 µM; O88943; actives 1.1% (n = 310,000);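 active = fluorescence ratio B-score at most minus 3 library SDs, with starting brightness B-score within 2 library SDs, cut at about -5.5 in these data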
Target sequence (O88943 whole entry, looked up): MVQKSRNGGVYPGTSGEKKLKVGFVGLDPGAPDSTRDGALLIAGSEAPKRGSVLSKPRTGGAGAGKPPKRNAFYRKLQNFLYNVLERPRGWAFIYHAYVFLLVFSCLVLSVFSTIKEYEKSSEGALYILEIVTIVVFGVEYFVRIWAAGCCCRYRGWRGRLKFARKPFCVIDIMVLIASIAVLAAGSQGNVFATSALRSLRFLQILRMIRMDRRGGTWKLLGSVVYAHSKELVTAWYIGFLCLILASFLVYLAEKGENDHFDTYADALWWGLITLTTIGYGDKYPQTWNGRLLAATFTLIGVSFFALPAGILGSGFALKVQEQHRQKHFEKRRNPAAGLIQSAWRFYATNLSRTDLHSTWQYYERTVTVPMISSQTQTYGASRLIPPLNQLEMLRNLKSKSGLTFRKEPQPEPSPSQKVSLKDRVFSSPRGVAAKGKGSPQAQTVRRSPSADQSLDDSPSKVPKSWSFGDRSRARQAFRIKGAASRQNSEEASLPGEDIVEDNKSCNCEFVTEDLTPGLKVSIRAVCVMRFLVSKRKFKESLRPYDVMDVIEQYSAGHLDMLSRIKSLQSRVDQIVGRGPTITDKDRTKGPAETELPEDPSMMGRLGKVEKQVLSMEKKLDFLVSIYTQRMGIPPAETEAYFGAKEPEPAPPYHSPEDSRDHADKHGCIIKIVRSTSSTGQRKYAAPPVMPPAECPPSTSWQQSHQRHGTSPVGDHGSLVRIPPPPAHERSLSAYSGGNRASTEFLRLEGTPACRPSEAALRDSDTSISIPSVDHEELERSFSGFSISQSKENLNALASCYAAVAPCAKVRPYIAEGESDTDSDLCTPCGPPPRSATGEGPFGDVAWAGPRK
KCNQ2 block baseline: also measured in KCNQ2 block; calls as there; B-score; measured here: initial fluorescence intensity artifact check;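 brightness before thallium and not channel activity; 0 = typical well and far values either way flag optical interference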
The depositor's hits bear a star; i = inactive. Only part of the results is shown; count on the stated rates, not on these rows.

The line under a structure holds: KCNQ2 block | KCNQ2 block baseline
CCOC(=O)[C@H](CCc1ccccc1)N[C@@H](C)C(=O)N1Cc2ccccc2C[C@H]1C(=O)O
 : i | 0.47
C/C=C(/C)C(=O)OC(C)(C)[C@@H]1Cc2c(ccc3ccc(=O)oc23)O1
 : i | 0.6
COc1ccc(-c2cc(=O)c3c(O)cc(OC4OC(COC5OC(C)C(O)C(O)C5O)C(O)C(O)C4O)cc3o2)cc1O (centres undefined)
 : i | 0.31
CN1CCCN=C1COC(=O)C(O)(c1ccccc1)C1CCCCC1 (centres undefined)
 : i | 0.58
N#Cc1ccc(C(c2ccc(C#N)cc2)n2cncn2)cc1
 : i | -0.33
CC1Cc2ccccc2N1NC(=O)c1ccc(Cl)c(S(N)(=O)=O)c1 (centres undefined)
 : i | 0.41
CCC(NC(C)C)C(O)c1ccc(O)c2[nH]c(=O)ccc12 (centres undefined)
 : i | 2.3
CC(C)=CCOc1c2ccoc2cc2oc(=O)ccc12
 : i | 0.18
Cc1cccc2c1NC(=O)C2(c1ccc(O)cc1)c1ccc(O)cc1
 : i | 1.8
Cc1ccc(N(CC2=NCCN2)c2cccc(O)c2)cc1
 : i | 0.04
Cc1ccc(=O)n(-c2ccccc2)c1
 : i | 0.3
CCn1cc(C(=O)O)c(=O)c2cnc(N3CCNCC3)nc21
 : i | -0.15
CCCCCC(=O)O[C@]1(C(C)=O)CC[C@H]2[C@@H]3CCC4=CC(=O)CC[C@]4(C)[C@H]3CC[C@@]21C
 : -7.2* | -1.8*
NC1CCN(c2nc3c(cc2F)c(=O)c(C(=O)O)cn3-c2ccc(F)cc2F)C1 (centres undefined)
 : i | 2.2
CC(=O)CCCCn1c(=O)c2c(ncn2C)n(C)c1=O
 : i | 0.72

Complete entries, looked up by structure. Values in the order: KCNQ2 block, KCNQ2 block baseline
N#Cc1ccc(C(c2ccc(C#N)cc2)n2cncn2)cc1 is listed as i, -0.33
Cc1ccc(N(CC2=NCCN2)c2cccc(O)c2)cc1 is listed as i, 0.04
CC(C)=CCOc1c2ccoc2cc2oc(=O)ccc12 is listed as i, 0.18
CCCCCC(=O)O[C@]1(C(C)=O)CC[C@H]2[C@@H]3CCC4=CC(=O)CC[C@]4(C)[C@H]3CC[C@@]21C is listed as -7.2*, -1.8*

Individual results from above.
Under KCNQ2 block baseline, CCn1cc(C(=O)O)c(=O)c2cnc(N3CCNCC3)nc21 has -0.15
Under KCNQ2 block, CCCCCC(=O)O[C@]1(C(C)=O)CC[C@H]2[C@@H]3CCC4=CC(=O)CC[C@]4(C)[C@H]3CC[C@@]21C has -7.2*
Under KCNQ2 block baseline, CC(=O)CCCCn1c(=O)c2c(ncn2C)n(C)c1=O has 0.72
Under KCNQ2 block baseline, Cc1ccc(N(CC2=NCCN2)c2cccc(O)c2)cc1 has 0.04
